# AID923: qHTS Assay for Allosteric/Competitive Inhibitors of Caspase-1: Spectroscopic Profiling in AFC Spectral Region; AID 923, 2007; hit rate 1.1% among 75,000; compound fluorescence, AFC spectral region (405/520 nm); almost no hit is shown here; Potency, µM (titrated, usually from 57.5 µM), without a hit: top-dose fluorescence increase, usual class: activators; active = well fitted activation curve with a large enough effect; inconclusive = small, poorly fitted or top-dose-only effect;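 also: potency is read from the fitted curve at half-maximal effect; 0% is about no effect; scaled to a free AFC standard on each plate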
#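 Baseline compound fluorescence (AFC region, 405 nm ex/520 nm em) taken from the intercept of kinetic reads with 50 nM caspase-1 and 5 uM Ac-WEHD-AFC; normalized to an on-plate AFC standard curve; compounds titrated up to 57 uM.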
# A488 fluor: compound autofluorescence in A488 spectral region | compound autofluorescence, A488 spectral region, dye equivalency; active compounds read high | max dye equivalency, M | hit rate 0.1% among 59,000 | AID 591; active = above 10 nM dye equivalent; inconclusive = 1 to 10 nM; inactive = 1 nM or less; about half of its hits are not listed in these tables;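 also: highest value over a series up to 38 µM; compound alone in buffer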
#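 Autofluorescence read at ex 480/em 540 nm after 15 min RT in 100 mM Tris pH 8.0; compound signal normalized to A488 standard series on each plate, reported as dye-equivalent concentration at each test concentration.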
# A647 autofl: compound fluoresces in the A647 spectral region. Compound fluorescence, A647 channel (570/671 nm), Tris buffer. max dye-equivalent concentration, M. 59,000 tested, under 10 active. AID 592; active means above 1 µM dye equivalent; inconclusive means 0.1 to 1 µM; inactive means 0.1 µM or less;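 also: values scaled relative to a standard on each plate; highest value over a series up to 38 µM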
#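 Buffer was dispensed, compounds and Alexa 647 standards were pin-transferred, and plates sat 15 min at room temperature. Intensity at 570/671 nm was then converted to dye-equivalent concentration using the plate's A647 standard curve.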
# TSHR ag: agonists of human thyroid stimulating hormone receptor. P16473. HEK293-CNG-TSHR cells (CNG channel as cAMP sensor), membrane potential dye, cAMP. Potency, µM (top dose mostly 57.1 µM), for inactives: at the highest dose activation, usual class: activators. hit rate 0.48% among 73,000; active = well fitted activation curve of enough size with the parental cells flat; inconclusive = any curve in the parental cells; inactive = parental cells flat and receptor cells flat or falling; also: potency is read from the fitted curve at half-maximal effect; % of control where 0% means no effect; weak receptor curves with flat parental cells got no call and are not listed
# Target sequence (P16473 whole entry, looked up): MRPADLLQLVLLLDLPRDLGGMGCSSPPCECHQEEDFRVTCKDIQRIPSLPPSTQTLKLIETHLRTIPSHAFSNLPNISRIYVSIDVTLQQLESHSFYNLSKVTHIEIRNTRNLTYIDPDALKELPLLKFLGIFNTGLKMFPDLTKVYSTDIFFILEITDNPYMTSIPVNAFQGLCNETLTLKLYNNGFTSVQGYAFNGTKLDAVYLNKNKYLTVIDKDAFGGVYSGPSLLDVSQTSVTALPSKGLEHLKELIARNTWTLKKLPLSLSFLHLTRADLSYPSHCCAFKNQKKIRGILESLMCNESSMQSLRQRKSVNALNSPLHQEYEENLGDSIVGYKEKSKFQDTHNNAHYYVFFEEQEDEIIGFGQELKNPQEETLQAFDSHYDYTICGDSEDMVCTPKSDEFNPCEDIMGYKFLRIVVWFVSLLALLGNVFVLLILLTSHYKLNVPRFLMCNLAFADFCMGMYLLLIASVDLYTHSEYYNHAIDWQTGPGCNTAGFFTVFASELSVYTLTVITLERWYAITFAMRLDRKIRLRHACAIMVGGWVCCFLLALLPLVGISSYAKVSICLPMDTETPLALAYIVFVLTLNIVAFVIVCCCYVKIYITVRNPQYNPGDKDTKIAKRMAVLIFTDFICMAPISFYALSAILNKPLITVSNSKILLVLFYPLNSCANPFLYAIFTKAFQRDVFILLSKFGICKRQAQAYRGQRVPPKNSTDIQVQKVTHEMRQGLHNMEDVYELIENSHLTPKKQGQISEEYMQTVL
#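 HEK 293 cells stably expressing TSHR and a cAMP-gated CNG channel; parental CNG-only cells as counterscreen. Cells preloaded 60 min with membrane potential dye plus 100 uM RO 20-1724, then compound 30 min; fluorescence read at 590 nm.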
# Resorufin fluor: compound fluoresces in the resorufin spectral region; max dye-equivalent concentration, M; Compound fluorescence, resorufin region 547/598 nm, buffer; active compounds read high; hit rate 0.04% among 59,000; AID 588; active = above 10 nM dye equivalent; inconclusive = 1 to 10 nM; inactive = 1 nM or less; a few of its hits are not listed in these tables; also: highest value over a series up to 38 µM
#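 Compounds in 100 mM Tris buffer, pH 8.0, incubated 15 min at room temperature, then read with 547 nm excitation and 598 nm emission filters. Fluorescence was converted to dye-equivalent concentration using an on-plate six-point resorufin standard curve.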
# The depositor's hits bear a star; i = inactive; ? = inconclusive; . = not tested or not shown; [ ] = dose if it differs, or a comment. Not all compounds are listed. The share of hits here may be higher or lower than overall.
# Sample of the layout, two compounds:
SMILES,AID923,A488 fluor,A647 autofl,TSHR ag,Resorufin fluor
O=C(Nc1ccccc1)N(CCCN1CCOCC1)Cc1ccccc1F,0.0%,i,2.92e-08,9.4%,i
Cc1cc(C)c2[nH]c(=O)c(C(c3nnnn3Cc3ccc4c(c3)OCO4)N3CCCCC3)cc2c1 (stereo not drawn),1.8%,i,1.83e-08,2.4%,i

# This part in full, from the start:
SMILES,AID923,A488 fluor,A647 autofl,TSHR ag,Resorufin fluor
O=C(Nc1ccccc1)N(CCCN1CCOCC1)Cc1ccccc1F,0.0%,i,2.92e-08,9.4%,i
Cc1cc(C)c2[nH]c(=O)c(C(c3nnnn3Cc3ccc4c(c3)OCO4)N3CCCCC3)cc2c1 (stereo not drawn),1.8%,i,1.83e-08,2.4%,i
COc1ccc(OC)c2sc(N3CCN(c4ccccc4)CC3)nc12,0.9%,i,2.87e-08,-13.9%,i
O=C(Nc1cccnc1)C1CC(c2ccc(Cl)c(Cl)c2)=NO1 (stereo not drawn),-1.1%,i,4.43e-08,18.5%,i
COC(=O)c1ccc(CN2C(=O)c3ccccc3S2(=O)=O)cc1,-1.2%,i,3.17e-08,.,i
Cn1c(=O)[nH]c(=O)c2c1ncn2CCN1CCCCC1,0.3%,i,2.48e-08,-12.8%,i
CCOC(=O)c1cccc(NC(=O)CCc2nc(-c3ccccc3F)no2)c1,-0.8%,i,3.02e-08,?,i
CCCc1nc(C)c(-c2ccc(OC)c(OC)c2)c(=O)[nH]1,0.7%,.,.,5.0%,.
CC(NC(=O)c1cc(-c2ccc(Br)cc2)on1)c1ccccc1 (stereo not drawn),-0.3%,i,4.44e-08,-6.6%,i
CCCCc1nc2c(=O)[nH]c3ccccc3c2o1,-1.3%,i,5.5e-09,.,i
Cn1ncc2nnn(-c3ccccc3)c(=O)c21,.,i,6.71e-08,.,i
CCCC1(C(=O)OCC)NC(c2ccc(N(C)C)cc2)C2C(=O)N(c3ccccc3)C(=O)C21 (stereo not drawn),0.7%,i,1e-09,.,i
O=C(O)/C(=C\c1ccccc1)Cc1ccccc1,-3.2%[11.5 µM],i,1.61e-08,-0.4%[11.4 µM],i
CC1CCCN(C(=O)CSc2nnc(-c3cccnc3)n2C2CCCCC2)C1 (stereo not drawn),-0.9%,i,3.2e-08,7.6%,i
CCCc1nc(-c2ccc(-c3ccc(F)cc3)cc2)no1,0.6%,.,.,-2.5%,.
Cn1c(SCc2cc(=O)n3cc(Br)ccc3n2)nnc1C1COc2ccccc2O1 (stereo not drawn),1.4%,i,2.35e-08,?,i
Cc1cc(C)nc(N2CCCC(C(=O)Nc3ccc4nc(C)c(C)nc4c3)C2)n1 (stereo not drawn),-0.5%,i,5.9e-09,4.2%,i
Cn1c(SCC(=O)Nc2ccc3c(c2)oc2ccccc23)nnc1-c1ccccc1,-0.2%,i,6.13e-08,22.1%,i
CCOC(=O)C(C)c1nn(C)c(=O)c2ccccc12 (stereo not drawn),1.3%,.,.,22.1%,.
CN(Cc1ccccc1)C(=O)C1CCN(Cc2ccc(F)cc2)CC1,-0.1%,i,1.03e-08,11.3%,i
COCc1nc(-c2ccc(-c3ccccc3)nc2OC)no1,1.1%,i,1.92e-08,0.6%,i
COc1ccc(N2C(=O)CC(N3CCCC4CCCCC43)C2=O)cc1 (stereo not drawn),-1.2%,.,.,-0.3%[11.4 µM],.
COc1cccc(-c2nc(CS(=O)(=O)CC(=O)NCCCN3CCc4ccccc4C3)c(C)o2)c1,2.2%,i,1e-09,16.1%,i
c1ccc(C2=Nn3c(nnc3-c3ccncc3)SC2)cc1,1.0%,i,3.06e-08,0.0%,i
O=C(CCn1nnc2ccccc2c1=O)N[C@@H](Cc1ccccc1)C(=O)O,-0.7%,i,1e-09,-3.1%,i
C=CCn1c(C)cc(C(=O)COC(=O)C2CC(=O)N(Cc3ccccc3)C2)c1C (stereo not drawn),0.1%,i,1e-09,5.0%,i
Cc1ccc2c(c1)NC(=O)C(CC(=O)NCCCN1CCCC1=O)O2 (stereo not drawn),-2.8%,.,.,-2.1%,.
Cc1nnc(SCC(=O)Nc2sc3c(c2C#N)CCCC3)[nH]c1=O,0.7%,.,.,10.9%[11.4 µM],.
Cc1cc(=O)n(CC(C)O)c(O)c1C#N (stereo not drawn),3.1%,i,1.5e-09,-5.0%,i
COc1ncc2ncc(=O)n(C3CC3)c2n1,5.4%,i,3.06e-08,5.0%,i
Clc1ccc(Cn2cc(/C=N/n3cnnc3)c3ccccc32)cc1,-1.5%,i,4.07e-08,16.8%,i
CCc1n[nH]c(=O)n1Cn1c(CC)n[nH]c1=O,-0.8%,i,7.6e-09,1.6%,i
Cc1ccc(-c2nn3c(C)nnc3s2)cc1NC(=O)c1ccco1,1.5%,.,.,3.8%,.
O=C(Nc1cccc(S(=O)(=O)c2cccc(NC(=O)C3CC3)c2)c1)C1CC1,-0.5%,i,6.6e-09,3.1%,i
O=C(c1ccco1)N1CCN(c2cc(C(F)(F)F)nc3ncnn23)CC1,-0.1%,i,5.16e-08,0.5%,i
CCCc1nnc(NC(=O)CCCC(=O)O)s1,2.6%,i,4.42e-08,1.8%,i
C[C@@H](C(=O)NCc1nc2ccccc2[nH]1)[C@@H]1C[C@@]1(C)[C@@H](NC(=O)OCc1ccccc1)c1ccccc1,1.3%,.,.,-0.6%,.
Cc1ccc(-c2c3c(=O)n(C)c(=O)n(C)c3cn2Cc2ccccn2)cc1,3.9%,i,1.85e-08,-0.2%,i
Cc1cccc(N(CC(N)=O)S(C)(=O)=O)c1C,-1.1%,i,2.61e-08,0.0%,i
C=CCNC(=O)c1cc(-c2ccccc2O)on1,-2.7%,.,.,3.5%,.
c1cc(CNc2ccc3c(c2)OCCO3)ccn1,1.2%,i,2.8e-09,0.6%,i
CCOc1ccc(OCC)c(NC(=O)CN2CCN(c3cccc(C)c3)C(C)C2)c1 (stereo not drawn),0.0%,i,2.46e-08,5.3%,i
COC(=O)c1ccc(CC(=O)c2ccc(O)cc2O)o1,-0.5%,.,.,25.6%,.
CCC(=O)N(Cc1cc2ccccc2[nH]c1=O)C(C)C,0.9%,i,1.92e-08,5.4%,i
COc1cc(OC)cc(N(C(=O)c2ccco2)C(C(=O)NC2CCCC2)c2ccc(N(C)C)cc2)c1 (stereo not drawn),-2.6%,i,1.01e-08,7.1%,i
CC(C)NC(=O)c1cnc(N2CCN(c3ccccn3)CC2)c2ccccc12,-0.1%,i,4.8e-09,-2.8%,i
NNC(=O)c1ccc(OCc2nc3ccccc3[nH]2)cc1,-4.3%[11.5 µM],i,1.8e-09,1.9%[11.4 µM],i
Cc1ccnc(NS(=O)(=O)c2ccc(N=[N+]=[N-])cc2)n1,0.9%[11.5 µM],i,3.72e-08,1.7%[11.4 µM],i

# Retrieved one by one from above, six records:
SMILES,AID923,A488 fluor,A647 autofl,TSHR ag,Resorufin fluor
Cc1cccc(N(CC(N)=O)S(C)(=O)=O)c1C,-1.1%,i,2.61e-08,0.0%,i
c1cc(CNc2ccc3c(c2)OCCO3)ccn1,1.2%,i,2.8e-09,0.6%,i
CC(C)NC(=O)c1cnc(N2CCN(c3ccccn3)CC2)c2ccccc12,-0.1%,i,4.8e-09,-2.8%,i
C[C@@H](C(=O)NCc1nc2ccccc2[nH]1)[C@@H]1C[C@@]1(C)[C@@H](NC(=O)OCc1ccccc1)c1ccccc1,1.3%,.,.,-0.6%,.
COc1cc(OC)cc(N(C(=O)c2ccco2)C(C(=O)NC2CCCC2)c2ccc(N(C)C)cc2)c1 (stereo not drawn),-2.6%,i,1.01e-08,7.1%,i
C=CCNC(=O)c1cc(-c2ccccc2O)on1,-2.7%,.,.,3.5%,.

# Next part.
SMILES,AID923,A488 fluor,A647 autofl,TSHR ag,Resorufin fluor
COC(=O)[C@H](Cc1ccccc1)NC(=O)Nc1ccc(S(N)(=O)=O)cc1,3.5%,i,1.49e-08,1.5%,i
Cc1nnc(SCC(=O)Nc2ccccc2N2CCOCC2)s1,-3.3%,i,3.21e-08,?,i
COCCNC(=O)C(c1cccs1)N(C(=O)Cn1nnc2ccccc21)c1cccc(C(C)=O)c1 (stereo not drawn),-0.7%,i,1e-09,4.8%,i
COc1cc(CC(=O)Nc2ccc(S(=O)(=O)Nc3ncccn3)cc2)cc(OC)c1OC,1.9%,i,4.4e-09,-3.6%,i
Cc1cc(N2CCN(S(=O)(=O)c3ccc(Cl)cc3)CC2)c2ccccc2n1,0.9%,.,.,?,.
O=C(CC(C(=O)N1CCc2ccccc21)n1ccnc1)NCC1CCCO1 (stereo not drawn),-2.0%,i,2.86e-08,7.1%,i
COc1cccc(NC(=O)CCSc2nnc3scc(-c4ccccc4)n23)c1,-1.0%,i,2.5e-08,21.1%,i
CCOc1ccc(Nc2oc(-c3ccco3)nc2C#N)cc1,-2.6%,i,1e-09,-19.7%,i
COc1ccc(NC(=O)c2ccc(NS(=O)(=O)c3c(C)noc3C)cc2)cc1OC,1.8%,i,1e-09,10.9%,i
O=C(Nc1ccc2c(c1)OCO2)Oc1ccccc1,2.9%,i,2.68e-08,3.1%,i
NC(=O)C1CCN(C2OC(=O)c3ccccc32)CC1 (stereo not drawn),.,i,4.4e-08,.,i
COCc1nnc(NC(=O)c2sc3ccccc3c2Cl)s1,-1.2%,i,3.49e-08,2.2%,i
Cc1csc(/C(=N\O)c2csc(C)n2)n1,-0.1%,i,3.4e-09,1.1%,i
COc1ccccc1N1CCN(C(=O)C2C3C=CC4(CN(Cc5ccccc5Cl)C(=O)C24)O3)CC1 (stereo not drawn),-2.2%,i,1e-09,9.0%,i
CC(=O)c1ccc(NS(=O)(=O)c2cccc(C)c2)cc1,-2.7%,i,1e-09,9.0%,i
CN(c1ccccc1C(=O)Nc1cccc(C(F)(F)F)c1)S(C)(=O)=O,-0.7%,i,1e-09,-11.6%,i
CCOc1ccccc1NC(=O)NC1(C(=O)N2CCN3CCCC3C2)CCCCC1 (stereo not drawn),-2.2%,i,4.4e-08,-0.7%,i
CC(=O)N1CCN(c2ccc(NC(=O)c3ccc(C(C)(C)C)cc3)cc2)CC1,0.6%,i,1e-09,4.3%,i
c1ccc2c(c1)nnn2CN1CCOCC1,1.8%[11.5 µM],i,1e-09,2.1%[11.4 µM],i
O=C(CCCCCN1C(=O)c2ccccc2C1=O)NCc1ccccn1,-0.9%,i,4.2e-09,3.6%,i
O=C(Cn1nnc(-c2ccc(OCc3ccccc3F)cc2)n1)N1CCOCC1,-2.0%,i,2.09e-08,14.4%,i
Cc1ccc(C=NCc2ccncc2)c(O)c1,-1.0%,i,3.09e-08,-7.3%,i
Cc1ccc(S(=O)(=O)N2CCCC(NC(=O)N3CCN(c4ccccc4)CC3)C2)cc1 (stereo not drawn),-0.7%,i,1.15e-08,8.7%,i
Cc1ccc(C(OC(=O)c2ccco2)C(=O)NCc2cccs2)cc1 (stereo not drawn),0.9%,i,1e-09,.,i
O=C(CC(c1ccc(F)cc1)c1ccco1)N1CCOCC1 (stereo not drawn),2.9%,i,2.4e-09,-3.4%,i
C=CCSc1nnc2c(n1)OC=Nc1ccc(Br)cc1-2,-0.8%,i,1e-09,-3.5%,i
O=C(Nc1ccc(O)cc1)c1cc(S(=O)(=O)N2CCCC2)ccc1Cl,-0.5%,.,.,3.8%,.
CCOC(=O)c1cccc(NC(=O)CSc2nc3ccccc3c(=O)n2CCOC)c1,-1.8%,i,1.3e-08,?,i
CCO/C=C/C(=O)N(C)CCC#N,14.5%,i,1e-09,-0.1%,i
N#Cc1nc(COc2cccc(Cl)c2)oc1NCc1ccco1,0.7%,.,.,26.7%,.
CCN1CCN(S(=O)(=O)c2ccc3[nH]c(=O)oc3c2)CC1,-1.6%,.,.,?,.
CC(C)c1ccc(NC(=O)C2CC(=O)N=C(N)S2)cc1 (stereo not drawn),-0.2%,i,1e-09,-7.2%,i
CS(=O)(=O)N(CC(=O)NCC1CCCO1)c1cc(Cl)ccc1Cl (stereo not drawn),-2.8%,.,.,2.8%,.
